Ran importin = inhibitors of Ran–importin-beta complex formation, primary screen, biochemical, CFP-Ran/YFP-importin-beta FRET, RCC1, cell-free (AID 434961); Regulator of chromosome condensation (Homo sapiens) + GTP-binding nuclear protein Ran …; CFP-Ran/YFP-importin-beta FRET, cell-free; active compounds read high; inhibition, %; 7,700 tested, 0.2% active;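 active = more than half of the replicate wells above 15% inhibition; inconclusive = exactly half above it; inactive = fewer than half above it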;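 also: 0% = DMSO wells and 100% inhibition = RanGDP control wells on each plate; stock of unstated strength diluted about 400-fold; mean of two wells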
* hit, by the source's call; ? = inconclusive.

Ran importin,compound
-4.9,C[C@H]1CN([C@@H](C)CO)C(=O)c2cc(N(C)C)ccc2O[C@@H]1CN(C)S(=O)(=O)c1cccs1
-4.4,C[C@H]1CN([C@@H](C)CO)C(=O)Cc2cc(NC(=O)C3CC3)ccc2O[C@H]1CN(C)C(=O)Nc1ccccc1
?,C[C@@H]1CN([C@@H](C)CO)C(=O)c2cccc(NC(=O)c3ccncc3)c2O[C@H]1CN(C)C(=O)Nc1cccc2ccccc12
-3.3,C[C@H](CO)N1C[C@H](C)[C@@H](CN(C)C)OCCCC[C@H](C)Oc2ccc(NS(=O)(=O)c3cccs3)cc2C1=O
1.2,CC(C)NC(=O)N(C)C[C@H]1Oc2ccc(NC(=O)C3CC3)cc2C(=O)N([C@H](C)CO)C[C@H]1C
-0.6,COc1ccc(NC(=O)Nc2ccc3c(c2)C(=O)N([C@@H](C)CO)C[C@H](C)[C@H](CN(C)Cc2ccc(C(=O)O)cc2)O3)cc1
-2.7,C[C@@H]1CN([C@H](C)CO)C(=O)Cc2cc(NS(=O)(=O)c3ccccc3)ccc2O[C@H]1CN(C)C(=O)Nc1cccc2ccccc12
1.2,C[C@@H]1CCCCO[C@@H](CN(C)C)[C@H](C)CN([C@H](C)CO)C(=O)c2cc(NC(=O)c3ccccc3)ccc2O1
-2.8,C[C@@H]1CN([C@@H](C)CO)C(=O)c2cc(NC(=O)Nc3ccc4c(c3)OCO4)ccc2O[C@@H]1CN(C)C(=O)Nc1ccc(F)cc1
?,C[C@@H]1CN([C@@H](C)CO)C(=O)Cc2cc(NC(=O)Nc3ccccc3)ccc2O[C@H]1CN(C)C(=O)Nc1ccccc1

Next part (two carried over from the part before).
Ran importin,compound
-2.8,C[C@@H]1CN([C@@H](C)CO)C(=O)c2cc(NC(=O)Nc3ccc4c(c3)OCO4)ccc2O[C@@H]1CN(C)C(=O)Nc1ccc(F)cc1
?,C[C@@H]1CN([C@@H](C)CO)C(=O)Cc2cc(NC(=O)Nc3ccccc3)ccc2O[C@H]1CN(C)C(=O)Nc1ccccc1
-3.1,Cc1noc(C)c1S(=O)(=O)Nc1ccc2c(c1)C(=O)N([C@@H](C)CO)C[C@H](C)[C@@H](CN(C)C(=O)NC(C)C)OCCCC[C@@H](C)O2
6.0,C[C@H](CO)N1C[C@H](C)[C@H](CN(C)S(=O)(=O)c2cn(C)cn2)Oc2ccc(NC(=O)Nc3cccc4ccccc34)cc2CC1=O
3.0,C[C@@H]1CN([C@@H](C)CO)C(=O)CCCn2cc(nn2)CO[C@@H]1CN(C)C(=O)Nc1cccc2ccccc12
1.2,COc1ccc(S(=O)(=O)Nc2ccc3c(c2)C(=O)N([C@H](C)CO)C[C@@H](C)[C@H](CN(C)CC2CC2)O3)cc1
2.9,CCCN(C)C[C@H]1OCCCC[C@@H](C)Oc2ccc(NS(=O)(=O)c3ccc(OC)cc3)cc2C(=O)N([C@H](C)CO)C[C@@H]1C
4.9,C[C@@H]1CN([C@H](C)CO)C(=O)c2cccc(NC(=O)Nc3ccc(F)cc3)c2O[C@H]1CN(C)Cc1ccc(C(=O)O)cc1
5.6,C[C@@H]1CN([C@@H](C)CO)C(=O)Cc2cc(NS(=O)(=O)c3cccs3)ccc2O[C@@H]1CN(C)C(=O)Nc1ccc2c(c1)OCO2
3.5,C[C@H]1CN([C@@H](C)CO)C(=O)Cc2cc(NC(=O)c3ccncc3)ccc2O[C@H]1CN(C)S(=O)(=O)c1ccccc1
1.9,C[C@@H]1CN([C@H](C)CO)C(=O)Cc2cc(NC(=O)NC3CCCCC3)ccc2O[C@H]1CN(C)C(=O)Nc1ccc2c(c1)OCO2
1.7,Cc1noc(C)c1S(=O)(=O)N(C)C[C@@H]1Oc2c(NC(=O)C3CCOCC3)cccc2C(=O)N([C@H](C)CO)C[C@@H]1C

More results:
Ran importin,compound
2.9,CC(C)NC(=O)N(C)C[C@@H]1OCCCC[C@@H](C)Oc2ccc(NC(=O)Nc3ccc(C(F)(F)F)cc3)cc2C(=O)N([C@@H](C)CO)C[C@H]1C
4.4,CC(C)NC(=O)Nc1ccc2c(c1)C(=O)N([C@H](C)CO)C[C@H](C)[C@@H](CN(C)Cc1ccccc1)OCCCC[C@@H](C)O2
?,CC(C)NC(=O)Nc1cccc2c1O[C@@H](CN(C)Cc1ccc(C(F)(F)F)cc1)[C@@H](C)CN([C@@H](C)CO)C2=O
1.6,C[C@@H]1CN([C@@H](C)CO)C(=O)c2cc(N(C)C)ccc2O[C@H]1CN(C)S(=O)(=O)c1cccs1
-0.7,C[C@@H]1CN([C@@H](C)CO)C(=O)c2cc(NC(=O)c3ccncc3)ccc2O[C@@H](C)CCCCO[C@H]1CN(C)C
-0.2,C[C@@H]1CN([C@@H](C)CO)C(=O)c2cc(NS(=O)(=O)c3ccccc3)ccc2O[C@@H](C)CCCCO[C@@H]1CN(C)C(=O)Nc1ccccc1
2.3,CC(C)NC(=O)Nc1ccc2c(c1)C(=O)N([C@H](C)CO)C[C@@H](C)[C@H](CN(C)S(=O)(=O)c1ccccc1)OCCCC[C@@H](C)O2
-0.5,C[C@@H]1CN([C@@H](C)CO)C(=O)c2cc(NC(=O)Cc3cn(C)c4ccccc34)ccc2O[C@H]1CN(C)C(=O)Nc1ccccc1
?,Cc1noc(C)c1S(=O)(=O)N(C)C[C@H]1Oc2ccc(NC(=O)Nc3ccc(C(F)(F)F)cc3)cc2CC(=O)N([C@@H](C)CO)C[C@H]1C
2.0,C[C@@H]1CCCCO[C@H](CN(C)S(=O)(=O)c2ccc(F)cc2)[C@H](C)CN([C@@H](C)CO)C(=O)c2cc(NC(=O)Nc3ccccc3)ccc2O1

(cont.)
Ran importin,compound
2.2,C[C@@H]1CN([C@@H](C)CO)C(=O)c2cc(NC(=O)Cc3ccccc3)ccc2O[C@@H]1CN(C)C(=O)NC1CCCCC1
0.1,C[C@@H]1CN([C@H](C)CO)C(=O)c2cccc(NS(=O)(=O)c3cn(C)cn3)c2O[C@@H]1CN(C)S(=O)(=O)c1cn(C)cn1
0.2,COc1ccc(CN(C)C[C@H]2Oc3ccc(NC(=O)CCN4CCOCC4)cc3C(=O)N([C@H](C)CO)C[C@@H]2C)cc1
5.0,C[C@H](CO)N1C[C@H](C)[C@@H](CN(C)Cc2ccc(C(=O)O)cc2)Oc2c(NC(=O)c3ccc(-c4nccs4)cc3)cccc2C1=O
-3.0,C[C@@H]1CN([C@@H](C)CO)C(=O)Cc2cc(NC(=O)Cc3ccccc3)ccc2O[C@H]1CN(C)S(=O)(=O)c1cn(C)cn1
-1.0,CNC[C@@H]1Oc2ccc(NC(=O)Nc3ccc4c(c3)OCO4)cc2CC(=O)N([C@@H](C)CO)C[C@@H]1C
1.9,C[C@@H]1CN([C@@H](C)CO)C(=O)c2cccc(NC(=O)C3CCOCC3)c2O[C@@H]1CN(C)C(=O)Nc1ccc(C(F)(F)F)cc1
-1.7,Cc1noc(C)c1NC(=O)N(C)C[C@@H]1Oc2ccc(NC(=O)CCC(F)(F)F)cc2CC(=O)N([C@H](C)CO)C[C@@H]1C
?,COc1ccc(NC(=O)N(C)C[C@@H]2Oc3c(NS(=O)(=O)c4cccs4)cccc3C(=O)N([C@H](C)CO)C[C@H]2C)cc1
-2.2,CC(C)NC(=O)Nc1ccc2c(c1)C(=O)N([C@H](C)CO)C[C@H](C)[C@H](CN(C)Cc1ccncc1)OCCCC[C@H](C)O2

No new results follow: entries from further up.
Ran importin,compound
2.2,C[C@@H]1CN([C@@H](C)CO)C(=O)c2cc(NC(=O)Cc3ccccc3)ccc2O[C@@H]1CN(C)C(=O)NC1CCCCC1
0.1,C[C@@H]1CN([C@H](C)CO)C(=O)c2cccc(NS(=O)(=O)c3cn(C)cn3)c2O[C@@H]1CN(C)S(=O)(=O)c1cn(C)cn1
0.2,COc1ccc(CN(C)C[C@H]2Oc3ccc(NC(=O)CCN4CCOCC4)cc3C(=O)N([C@H](C)CO)C[C@@H]2C)cc1
5.0,C[C@H](CO)N1C[C@H](C)[C@@H](CN(C)Cc2ccc(C(=O)O)cc2)Oc2c(NC(=O)c3ccc(-c4nccs4)cc3)cccc2C1=O

Next part:
Ran importin,compound
-3.3,C[C@@H]1CCCCO[C@H](CN(C)S(=O)(=O)c2cn(C)cn2)[C@@H](C)CN([C@@H](C)CO)C(=O)c2cc(NS(=O)(=O)c3cn(C)cn3)ccc2O1
-1.0,CNC[C@H]1Oc2ccc(NS(=O)(=O)c3c(C)noc3C)cc2CC(=O)N([C@@H](C)CO)C[C@H]1C
?,C[C@@H]1CN([C@H](C)CO)C(=O)CCCn2nncc2CO[C@@H]1CN(C)Cc1ccc2c(c1)OCCN2C
-1.5,Cc1noc(C)c1S(=O)(=O)Nc1ccc2c(c1)C(=O)N([C@@H](C)CO)C[C@@H](C)[C@@H](CN(C)C(=O)CCC(F)(F)F)OCCCC[C@@H](C)O2
0.5,C[C@H]1CN([C@@H](C)CO)C(=O)Cc2cc(NC(=O)CCN3CCOCC3)ccc2O[C@@H]1CN(C)Cc1ccncc1
-0.5,C[C@H]1CN([C@@H](C)CO)C(=O)c2cccc(NS(=O)(=O)c3cn(C)cn3)c2O[C@H]1CN(C)C(=O)Nc1cccc2ccccc12
-1.2,COc1ccc(CN(C)C[C@@H]2Oc3ccc(NC(=O)c4ccncc4)cc3C(=O)N([C@H](C)CO)C[C@H]2C)cc1
-1.8,C[C@@H]1CN([C@@H](C)CO)C(=O)c2cc(NS(=O)(=O)c3ccc(Cl)cc3)ccc2O[C@@H](C)CCCCO[C@@H]1CN(C)C
-1.4,C[C@@H]1CN([C@@H](C)CO)C(=O)c2cc(NC(=O)Cn3cnnn3)ccc2O[C@H]1CN(C)Cc1ccc(Cl)c(Cl)c1
4.5,C[C@@H]1CN([C@@H](C)CO)C(=O)Cc2cc(NS(C)(=O)=O)ccc2O[C@@H]1CN(C)C(=O)Nc1cccc2ccccc12

Another view of 2 compounds above.
C[C@H]1CN([C@@H](C)CO)C(=O)c2cccc(NS(=O)(=O)c3cn(C)cn3)c2O[C@H]1CN(C)C(=O)Nc1cccc2ccccc12
  Ran importin = -0.5
COc1ccc(CN(C)C[C@@H]2Oc3ccc(NC(=O)c4ccncc4)cc3C(=O)N([C@H](C)CO)C[C@H]2C)cc1
  Ran importin = -1.2

Next compounds follow.
Ran importin,compound
5.7,C[C@@H]1CN([C@H](C)CO)C(=O)Cc2cc(NC(=O)c3ccncc3)ccc2O[C@@H]1CN(C)C(=O)Nc1cccc2ccccc12
0.0,COc1ccc(CN(C)C[C@H]2Oc3ccc(NC(=O)Nc4c(C)noc4C)cc3CC(=O)N([C@H](C)CO)C[C@H]2C)cc1
8.3,C[C@@H]1CN([C@@H](C)CO)C(=O)Cc2cc(NS(=O)(=O)c3cn(C)cn3)ccc2O[C@@H]1CN(C)Cc1ccccc1
2.1,C[C@@H]1CN([C@@H](C)CO)C(=O)c2cccc(NC(=O)NC3CCCCC3)c2O[C@@H]1CN(C)C(=O)Nc1cccc2ccccc12
-5.0,C[C@@H]1CN([C@@H](C)CO)C(=O)c2cccc(N(C)C)c2O[C@@H]1CN(C)C(=O)NC1CCCCC1
3.2,C[C@@H]1CN([C@@H](C)CO)C(=O)c2cccc(NC(=O)c3ccncc3)c2O[C@@H]1CN(C)C(=O)Nc1cccc2ccccc12
5.2,C[C@@H]1CN([C@H](C)CO)C(=O)Cc2cc(NS(=O)(=O)c3cccs3)ccc2O[C@H]1CN(C)C(=O)Nc1ccc2c(c1)OCO2
0.5,Cc1noc(C)c1S(=O)(=O)N(C)C[C@H]1Oc2c(NS(=O)(=O)c3ccc(F)cc3)cccc2C(=O)N([C@@H](C)CO)C[C@H]1C
0.2,C[C@@H]1CN([C@@H](C)CO)C(=O)CCCn2cc(nn2)CO[C@@H]1CN(C)C(=O)Nc1ccc(-c2cccs2)cc1
0.0,CC(C)NC(=O)Nc1ccc2c(c1)C(=O)N([C@@H](C)CO)C[C@@H](C)[C@@H](CN(C)C(=O)c1ccccc1)OCCCC[C@H](C)O2

Later entries:
Ran importin,compound
2.5,C[C@@H]1CCCCO[C@H](CN(C)C(=O)Nc2ccccc2)[C@@H](C)CN([C@H](C)CO)C(=O)c2cc(NC(=O)C3CCCCC3)ccc2O1
-1.2,CNC[C@@H]1OCCCC[C@H](C)Oc2ccc(NS(=O)(=O)c3cn(C)cn3)cc2C(=O)N([C@H](C)CO)C[C@@H]1C
7.7,Cc1noc(C)c1NC(=O)Nc1cccc2c1O[C@@H](CN(C)S(=O)(=O)c1cccs1)[C@@H](C)CN([C@@H](C)CO)C2=O
?,C[C@@H]1CN([C@@H](C)CO)C(=O)CCCn2cc(nn2)CO[C@H]1CN(C)Cc1cccc2c1OCCCO2
1.3,COc1ccc(CN(C)C[C@H]2Oc3ccc(NC(=O)C4CC4)cc3C(=O)N([C@H](C)CO)C[C@H]2C)cc1
-1.5,COc1ccc(S(=O)(=O)N(C)C[C@H]2Oc3c(NC(=O)NC4CCCCC4)cccc3C(=O)N([C@H](C)CO)C[C@H]2C)cc1
3.1,C[C@@H]1CN([C@@H](C)CO)C(=O)Cc2cc(NS(C)(=O)=O)ccc2O[C@@H]1CN(C)Cc1ccc2c(c1)OCO2
4.8,Cc1noc(C)c1NC(=O)Nc1cccc2c1O[C@H](CN(C)S(=O)(=O)c1ccc(Cl)cc1)[C@@H](C)CN([C@H](C)CO)C2=O
-3.0,Cc1noc(C)c1NC(=O)N(C)C[C@@H]1Oc2c(cccc2N(C)C)C(=O)N([C@H](C)CO)C[C@@H]1C
0.4,COc1ccc(S(=O)(=O)N(C)C[C@@H]2Oc3c(NC(=O)Nc4c(C)noc4C)cccc3C(=O)N([C@H](C)CO)C[C@@H]2C)cc1
1.7,C[C@H]1CCCCO[C@H](CN(C)S(=O)(=O)c2cn(C)cn2)[C@@H](C)CN([C@@H](C)CO)C(=O)c2cc(NS(=O)(=O)c3cn(C)cn3)ccc2O1
1.3,C[C@H](CO)N1C[C@H](C)[C@@H](CN(C)S(=O)(=O)c2cn(C)cn2)Oc2ccc(NC(=O)Cc3cn(C)c4ccccc34)cc2CC1=O
-5.4,C[C@H]1CN([C@@H](C)CO)C(=O)c2cc(NS(=O)(=O)c3cccs3)ccc2O[C@H]1CN(C)C(=O)NC1CCCCC1

Bioassay records (PubChem BioAssay)

Some of the compounds tested; count on the stated rates, not on these rows.
